Beta cell apopt – beta cell apoptosis inhibition. protection from apoptosis, % (concentration not given with the values). hit rate 0.8% among 300,000. AID 435005. INS-1E cytokine-induced death, ATP luminescence, 48 h; percent of positive-control rescue, neutral wells zero;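 active = all replicates at 75% or more, or half of them and the mean; inconclusive = half reach 75% but not the mean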;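 note: 0% = cytokine-treated negative control wells and 100% = positive control rescue; higher means more ATP so stronger rescue from cytokine killing; wells of about 40 µL received 100 nL stock; the first replicate is given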
Calb FLC – C. albicans growth modulation with fluconazole. C. albicans CaCi-2 (fluconazole-resistant clinical isolate) + fluconazole, Alamar Blue growth, 48 h. growth inhibition, % (test concentration not listed). hit rate 0.57% among 300,000;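 active = most replicates above 75%; inconclusive = exactly half above 75%; inactive = most below 75%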;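 note: all wells also contain fluconazole at 8 µg/ml as a sub-toxic cotreatment; 0% = median of DMSO wells and 100% = median of geldanamycin control wells; wells of about 8 µL received 7.5 nL stock; the first replicate is given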
AF4-AF9 inh – MLL-AF4/AF9 protein interaction inhibition. P42568. inhibition, % at 10 µM. AID 651704. hit rate 0.47% among 350,000. AlphaScreen, biotin-AF4 peptide binding to FLAG-AF9;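 active = every replicate reaching a set inhibition limit, whatever the replicate mean, cut at about 25% in these data; inconclusive = mean inhibition reaches that limit but some replicates miss it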;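 note: 0% = plate neutral control median and 100% = total signal loss; the record names both 10 and 1 µM as test concentration; the first replicate is given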
Target sequence (P42568 whole entry, looked up): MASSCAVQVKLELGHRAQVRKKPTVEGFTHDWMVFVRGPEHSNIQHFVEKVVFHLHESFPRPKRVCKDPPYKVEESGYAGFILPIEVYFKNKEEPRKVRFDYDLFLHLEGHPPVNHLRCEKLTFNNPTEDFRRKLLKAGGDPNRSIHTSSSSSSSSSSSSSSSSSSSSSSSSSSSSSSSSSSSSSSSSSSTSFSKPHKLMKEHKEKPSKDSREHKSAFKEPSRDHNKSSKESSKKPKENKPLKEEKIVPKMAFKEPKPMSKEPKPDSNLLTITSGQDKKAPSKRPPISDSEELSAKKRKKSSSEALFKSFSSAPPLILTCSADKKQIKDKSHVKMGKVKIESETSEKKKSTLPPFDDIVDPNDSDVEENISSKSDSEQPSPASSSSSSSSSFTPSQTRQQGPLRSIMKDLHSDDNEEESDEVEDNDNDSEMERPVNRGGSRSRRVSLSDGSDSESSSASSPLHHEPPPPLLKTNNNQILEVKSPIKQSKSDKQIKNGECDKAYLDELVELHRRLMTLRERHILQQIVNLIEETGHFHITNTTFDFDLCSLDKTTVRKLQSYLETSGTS
FGF22 binding – FGF22 (human) thermal shift binding; Q9HCT0; recombinant FGF22 thermal shift, SYPRO orange fluorescence; percent of sucrose octasulfate shift, DMSO zero; calls only at 9.99 µM; hit rate 1.5% among 340,000; AID 651658;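 active = melting point raised past a set limit in the mean and every replicate; inconclusive = no clear call; three in four hits are not shown here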
Target sequence (Q9HCT0 whole entry, looked up): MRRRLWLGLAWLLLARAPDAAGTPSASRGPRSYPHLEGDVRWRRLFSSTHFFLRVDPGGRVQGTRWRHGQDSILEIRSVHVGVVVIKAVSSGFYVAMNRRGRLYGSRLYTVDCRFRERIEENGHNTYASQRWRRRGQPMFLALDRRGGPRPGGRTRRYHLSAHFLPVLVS
RanGTP-Imp inh – inhibitors of RanGTP-importin-beta interaction, primary screen, biochemical, FRET, CFP-Ran, YFP-importin-beta, homogeneous. cell-free CFP-Ran/YFP-importin-beta FRET ratio. inhibition, % (concentration not given with the values). hit rate 1.1% among 300,000. AID 2216;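 active = most replicates above 15%; inconclusive = exactly half above 15%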;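 note: 0% = DMSO wells and 100% = Ran loaded with GDP instead of GTP; wells of about 40 µL received 100 nL stock; the first replicate is given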
rRNA inh HTS – selective bacterial rRNA inhibition in E. coli; E. coli WT GFP vs humanized-ribosome RFP mutants, fluorescence, 24 h; stronger effect = lower value; DMSO median 0, no signal -100; AID 720706; GFP signal change (wild-type ribosome), % (test concentration not listed); hit rate 1.6% among 350,000;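 active = significant combined selectivity score with lowered wild-type GFP, culture density cut under 30%, mutant RFP and density less affected; inactive = any of these conditions unmet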; note: one replicate is shown; some compounds called inactive have numbers as strong as hits
ALR inh – blocks human ALR sulfhydryl oxidase activity | purified ALR, DTT oxidation, H2O2 HRP-luminol luminescence | inhibition, % (test concentration not listed) | hit rate 3.8% among 290,000 | P55789 | AID 485317;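 active = mean and each replicate at 75% or more; inconclusive = only one of the two met; inactive = neither met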;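 note: stock transfer was 7.5 nL into about 7.5 µL; 0% = neutral wells and 100% = wells with inactivated enzyme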
Target sequence (P55789 whole entry, looked up): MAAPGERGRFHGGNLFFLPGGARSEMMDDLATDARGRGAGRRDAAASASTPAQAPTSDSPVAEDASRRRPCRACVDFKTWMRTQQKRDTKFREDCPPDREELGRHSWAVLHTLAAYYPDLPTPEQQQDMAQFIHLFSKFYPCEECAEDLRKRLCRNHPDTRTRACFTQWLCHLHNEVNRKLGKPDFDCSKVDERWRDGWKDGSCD
T cruzi inh – T. cruzi replication inhibition; AID 1885; T. cruzi beta-gal in NIH3T3, luminescence, 90 h; inhibition, % (test concentration not listed); hit rate 1.4% among 300,000;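 active = mean inhibition across valid replicates above about 55%, limit read from the data; inconclusive = mean below that limit but half or more replicates reach it; inactive = mean below it, under half of replicates reach it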;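 note: signal also drops with host cell toxicity which is not excluded here; 0% = plate median of DMSO wells and 100% = zero luminescence signal; higher percent means less beta-gal luminescence so fewer parasites; stock transfer was 50 nL into about 50 µL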
rRNA inh HTS OD600 – further read-out of rRNA inh HTS, marked with its call; OD600 change, %; measured here: OD600 growth;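 optical density of the mix in the first replicate; 0 = DMSO median and -100 = no signal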
rRNA inh HTS RFP – second read-out of rRNA inh HTS, no call of its own (marks repeat the call); RFP signal change, %; measured here: RFP humanized mutant strains;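 first replicate; 0 = DMSO median and -100 = no signal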
* marks the source's active call; other numbers are inactive results; i = inactive; u = inconclusive; x = not tested or not shown. The list is partial. The share of hits here may be higher or lower than overall.

Screens in order – Beta cell apopt	Calb FLC	AF4-AF9 inh	FGF22 binding	RanGTP-Imp inh	rRNA inh HTS	rRNA inh HTS OD600	rRNA inh HTS RFP	ALR inh	T cruzi inh
- O=C(Oc1cc(-c2ccccc2)no1)c1cccc(C(F)(F)F)c1
    -3	5	x	x	u	x	x	x	35	-9
- COc1ccc(NS(=O)(=O)c2cccc(C(=O)NNC(=O)CNC(=O)c3ccccc3)c2)cc1
    -9	6	-12	i	-0.2	6	8	2.3	2	0
- COc1ccc(S(=O)(=O)Nc2c(C)c(C)cc3c2ncn3C)cc1
    -3	-21	-4.3	i	-0.1	5	-6	0.5	1	-18
- Cc1occc1C(=O)NCc1nc(-c2ccccc2)no1
    1	-3	0.4	i	-2.0	1	-6	-0.8	-19	0
- CCC(C)NC(=O)CCc1c(C)nc2c(c(C)nn2-c2ccccc2)c1C (stereo not given)
    7	2	-2.5	i	-0.8	5	11	-2.3	-4	44
- COc1ccc(OC)c(N(CC(=O)NCc2ccccc2)S(=O)(=O)c2ccc(OC)c(OC)c2)c1
    -1	8	-0.3	i	4.5	7	12	-2.4	-9	9
- CN1CCCN=C1/C=C/c1cccs1
    -1	-16	-0.9	i	4.7	13	26	-0.1	-16	-12
- Nc1[nH]n(-c2ccccc2)c(=O)c1N=Nc1ccccc1[N+](=O)[O-]
    9	17	x	x	-4.1	x	x	x	-4	3
- Brc1cc(Br)c(Oc2cc(Br)c(Br)cc2Br)cc1Br
    10	x	x	i	x	6	-2	1.8	-16	x
- O=C(Nc1ccc(F)cc1)c1ccccc1Oc1ccc(C(F)(F)F)cc1[N+](=O)[O-]
    3	23	x	x	-1.6	x	x	x	-11	2
- COCCn1c(-c2ccc(OC)cc2)nc2ccccc21
    0	-4	x	x	-3.1	x	x	x	-1	-5
- CNC(=O)CSCc1c(Cl)cccc1Cl
    -5	-10	x	x	2.1	x	x	x	1	8
- CCOc1c2ccoc2nc2c(OC)c(OC)ccc12
    x	14	-4.3	i	-0.6	x	x	x	-19	-12
- COc1cc(OC)cc(N2CCN(S(=O)(=O)c3ccc(-n4cnnn4)cc3)CC2)c1
    1	-6	-2.6	i	-2.0	3	10	1.5	-11	2
- CC(OC(=O)c1ccncc1)C(=O)Nc1cccc(Cl)c1 (stereo not given)
    0	-10	x	x	u	x	x	x	x	-4
- CCC(=O)c1ccc(OCC(O)CN2CCN(c3ccc(F)cc3)CC2)cc1 (stereo not given)
    -2	-12	x	x	5.3	x	x	x	1	7
- CC(=O)c1c(C)nc(-c2ccccc2)nc1N
    1	-13	-3.8	i	-4.8	20	9	0.8	-1	-21
- CNc1oc(Cc2ccccc2)nc1S(=O)(=O)c1ccc(Cl)cc1
    2	27	-16	i	3.0	12	4	0.7	8	-11
- Cc1ccc2c(c1)c(-c1csc(N)n1)c(C)n2C
    x	8	8.8	i	-4.5	5	10	22	x	2
- CCN1C(=O)N(CC)C(O)(c2ccccc2)C1(O)c1ccccc1 (stereo not given)
    -6	-8	x	x	1.7	x	x	x	-1	4
- Cc1c(C(=O)N2CCCCCC2)nnn1-c1nonc1N
    -10	-8	x	x	5.8	6	6	3.5	0	-5
- CS(=O)(=O)N(CC(=O)N1CCc2ccccc2C1)c1ccccc1Br
    0	-2	-0.9	i	0.2	-1	-2	2.6	-9	8
- Nc1nonc1C(=O)N/N=C/c1ccc(Br)o1
    -6	1	6.7	i	u	7	7	-0.5	-4	-14
- O=C(Cn1cncn1)NCCC(c1ccccc1)c1ccccc1
    -5	3	2.2	x	-0.1	21	8	0.6	-10	-1
- O=C(CN(C(=O)c1csnn1)c1ccc(F)c(Cl)c1)NCc1ccccc1
    5	0	-9.9	i	-0.1	-5	-3	0.7	-1	4
- Cc1cc(Nc2nn(C)c(N)c2C#N)ccc1F
    -3	-11	4.6	i	5.9	9	5	2.1	x	1
- Cc1ccc(CC(=O)NC2CCN(Cc3ccccc3)CC2)cc1
    0	1	2.5	i	-0.6	1	1	-2.1	-4	34
- O=C(O)CCCC(=O)Nc1nncs1
    -1	-4	-0.4	i	-1.8	10	11	-3.2	-2	2
- COc1cccc(/C=C/C(=O)c2ccc[nH]2)c1
    -2	-9	x	x	-0.5	x	x	x	29	-15
- CCOc1ccc(NC(=O)CN(C)C(=O)CCC2CCCCC2)cc1OCC
    1	x	0.3	i	x	0	-39	2.3	-2	x

Going on with the list:
Screens in order – Beta cell apopt	Calb FLC	AF4-AF9 inh	FGF22 binding	RanGTP-Imp inh	rRNA inh HTS	rRNA inh HTS OD600	rRNA inh HTS RFP	ALR inh	T cruzi inh
- C/C(CC(=O)Nc1cccc2c1CCCC2)=N\NC(=O)COc1ccccc1
    -2	-1	x	x	-3.4	x	x	x	6	-8
- O=C(c1ccc2c(c1)OCO2)N1CCC2(CC1)Oc1ccc(F)cc1C(=O)C21CC(c2ccccc2)=NO1 (stereo not given)
    -7	77*	x	i	1.6	10	17	18	2	3
- Cc1c(Cl)cccc1NC(=O)CSc1nnnn1C
    -1	x	-1.9	i	x	9	9	2.7	7	x
- COc1ccc(CCNC(=O)C2CC(c3ccccc3C(F)(F)F)=NO2)cc1 (stereo not given)
    4	-18	-1.6	i	5.9	-34	-34	-9.1	-4	-13
- CCOc1ccccc1OCCn1nnc2ccccc21
    -3	17	x	x	3.5	x	x	x	x	5
- CCOC(=O)C(/C(N)=N/C(=O)Nc1ccccc1)=C(\C)O
    -3	-9	-1.9	i	-0.8	9	2	4.0	x	-5
- CCCOc1ccc(CSCCNC(=S)Nc2ccccc2)cc1
    9	-47	x	x	4.4	x	x	x	-1	24
- CCC(/C=N/NC(=O)CCCCC(=O)N/N=C/C(CC)CC)CC
    1	6	-1.6	i	-2.3	4	13	0.4	-4	-12
- COc1cccc(C2=NN(C(C)=O)C(c3cccs3)C2)c1 (stereo not given)
    -1	12	6.3	i	0.6	-7	-21	3.8	x	2
- COc1ccc(C(=O)COC(=O)c2ccc([N+](=O)[O-])s2)cc1OC
    5	x	-1.0	i	x	21	10	1.9	-82	x
- COCCCNC(=O)c1cc(C(=O)Cc2ccccc2)c[nH]1
    -4	12	-4.9	i	1.6	6	12	1.4	-4	-3
- Cc1ccc(OCc2cc(C(=O)N(C)Cc3cnn(-c4ccccc4C)c3)no2)cn1
    15	-1	1.4	x	-0.9	-25	-22	-4.8	-9	0
- Cc1ccc(S(=O)(=O)NCC(=O)NCC(=O)OCc2c(F)cccc2Cl)cc1
    0	-3	-1.9	i	-3.7	-10	-4	1.7	-12	-1
- C/C=C\C=C\C(=O)N1CC2(CC(c3cccc(NC(=O)CC(c4ccccc4)c4ccccc4)c3)=NO2)C[C@H]1C(N)=O (stereo not given in full)
    -1	22	x	x	-1.2	x	x	x	-15	40
- Cc1sc2ncnc(Nc3ccc(O)cc3)c2c1C
    -6	0	-25	i	u	-12	-9	-3.4	x	19
- O=C(c1ccc(N2CCN(C(=O)c3ccccc3Br)CC2)cc1)c1cccc(F)c1
    2	-1	-0.1	i	-1.9	1	3	-2.1	-5	25
- O=C(CNS(=O)(=O)c1ccc(F)cc1)N1CCOCC1
    -1	25	-2.2	i	2.8	13	8	1.9	2	-14
- CCOc1ccc(OCC)c(NC(=O)CN2CCN(CC)CC2)c1
    -6	-4	x	x	-1.7	x	x	x	-10	13
- COc1ccc(NC(=O)CCC(=O)N2CCOCC2)c([N+](=O)[O-])c1
    1	-5	-0.7	i	3.7	16	20	0.7	-2	-1
- Cc1cccc(N2CCN(C(=O)CNC(=O)c3ccccc3)CC2)c1C
    3	3	0.4	i	-0.9	-8	-17	-2.0	0	12
- CCN1CCN(C(=O)c2cn(CC)c3ccc(S(=O)(=O)N(C)C)cc3c2=O)CC1
    -3	1	-3.5	x	4.8	16	7	0.3	-32	-11
- CCN1/C(=C2\C(=O)N(C)C(=S)N2C)C=Cc2cc(C)ccc21
    18	-14	x	x	1.8	x	x	x	56	-23
- COc1ccc(-c2c(C(F)(F)F)nn(C)c2NC(=O)CSCC(=O)O)cc1
    -12	0	-8.9	i	-1.7	5	15	1.4	-10	-25
- CC(OC(=O)c1cccc(Cl)c1)C(=O)NC1CCCCC1C (stereo not given)
    -5	-18	-0.5	i	2.1	12	9	-0.9	-5	-9
- O=S(=O)(c1ccc(Cl)s1)N1CCC(Cc2ccccc2)CC1
    1	7	x	x	-3.8	x	x	x	97*	7
- O=C(O)COc1ccccc1/C=N/NC(=O)c1cc(-c2ccc(Cl)cc2)nc2ccccc12
    7	-7	5.0	i	-1.6	-14	-9	24	13	13
- Cn1c(SCCOc2ccccc2F)nc2ccccc2c1=O
    0	2	-2.7	i	-0.9	-28*	-1.1*	-1.6*	-6	3
- Cc1ccc(NS(=O)(=O)c2c(C)[nH]c(C)c2C(=O)N2CCCCC2)c(Br)c1
    x	-9	1.1	i	-1.6	4	-15	3.7	3	11
- O=C(NC(=S)Nc1cccc(O)c1)C1CCCCC1
    0	x	-1.8	i	x	-2	-5	-0.7	41	x
- Cc1cccc(OCC(=O)NCC(C)(C)N2CCOCC2)c1
    -10	x	0.8	i	x	2	5	0.0	-3	x

Next section.
Screens in order – Beta cell apopt	Calb FLC	AF4-AF9 inh	FGF22 binding	RanGTP-Imp inh	rRNA inh HTS	rRNA inh HTS OD600	rRNA inh HTS RFP	ALR inh	T cruzi inh
- CC(C)(C)NC(=O)C(c1ccsc1)N(CCc1ccccc1)C(=O)Cn1nnc2ccccc21 (stereo not given)
    x	-4	x	x	2.4	x	x	x	1	-1
- Cc1ccc(C2=NOC(C)(c3nnc(-c4ccncc4)o3)C2)cc1 (stereo not given)
    -11	2	9.8	i	-0.6	-9	-10	-0.5	x	20
- Cc1nnc(SCC(=O)Nc2ccc(N3CCOCC3)cc2)o1
    2	5	x	x	0.3	x	x	x	x	-4
- COCCN(Cc1nc(C2(c3ccc(C)cc3)CCCC2)no1)C(C)C
    -2	-17	-3.5	i	2.5	-10	5	-5.2	-12	0
- O=C(c1ccccc1[N+](=O)[O-])n1cnc2ccccc21
    -2	9	2.3	i	3.8	10	19	5.1	-23	-12
- O=C1CC(c2cccc([N+](=O)[O-])c2)c2cc3c(cc2N1)CCC3 (stereo not given)
    10	1	0.6	i	0.8	3	-9	-1.4	5	15
- O=C(CN1CCCCC1)NCC1(c2ccccc2)CCCC1
    -7	0	0.1	i	0.4	12	6	-1.9	8	-17
- CC1(C)CC(=O)c2cc(C(=O)NNc3ccccc3)c(=O)n(-c3ccccc3)c2C1
    -4	u	0.6	i	3.0	4	1	-2.8	98*	7
- COc1cccc(NC(=O)Cc2ccc3ccccc3c2)c1
    x	-8	-3.8	i	1.0	-9	-2	2.3	6	-15
- CCOc1ccc(Cl)cc1S(=O)(=O)n1nnc2ccccc21
    -2	-7	x	x	-3.7	x	x	x	-6	-2
- COC(=O)c1ccc(COc2ccccc2/C=N/NC(N)=O)o1
    -3	6	0.5	i	-2.6	-10	7	-3.0	-6	-9
- Cc1cc(SCCC(=O)O)nc2ccccc12
    -1	5	x	x	-1.3	x	x	x	5	-1
